# PrP UTR inh – inhibition of PrP 5' UTR reporter expression; cell-based PrP 5' UTR mRNA reporter, plate reader; inhibition, % (test concentration not listed); hit rate 0.35% among 340,000; AID 488862;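 active means every replicate at 50% or more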;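 further: 0 = median of the neutral control wells; tested in H4 reporter cells; numbers are from one replicate; inactives centre near -14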
# Sa RN4220 lethal – S. aureus RN4220 growth inhibition; OD600, 16 h; hit rate 0.33% among 330,000; inhibition, % (test concentration not listed);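 active means z-score of -3 or lower and OD600 up to 0.18 on both plates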;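 further: plate controls were untreated cells for no effect and reference antibiotic for full effect; stock transfer was 100 nL into about 80 µL; one replicate is shown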
# Autofluor counter – counter-screen for toxin protease inhibitors: compound fluorescence | compound autofluorescence counterscreen, microsphere flow cytometry; stronger effect = higher value | fluorescence intensity (concentration not given with the values) | hit rate 3.1% among 360,000;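 active means at least 3 SD above the mean of all compounds, about 16000 in these data; inconclusive means too few beads counted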;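 further: 100 nL of 1 mM stock went into each well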
# ugtP null kill – growth inhibition of S. aureus ugtP deletion strain; S. aureus RN4220 ugtP deletion, OD600 growth, 16 h; some inactives read as strong as hits; growth inhibition, % (no concentration beside the values); hit rate 0.54% among 330,000; AID 1259309;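 active means z-score under -3 and OD600 up to 0.15 on both plates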;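 further: plate controls were untreated wells for no effect and antibiotic for full effect; wells of about 80 µL received 100 nL stock; the first replicate is given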
# Mtb hypoxia rep – Mtb hypoxia fluorescent reporter inhibition. M. tuberculosis hypoxia-regulated fluorescent reporter, fluorescence. fluorescence inhibition, % (test concentration not listed). hit rate 0.1% among 300,000;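 active means 35 to 45% if threefold the growth effect, above 45% if 1.5-fold the growth effect; inactive means the rest, general growth blockers included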;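 further: wells of about 50 µL received 100 nL stock; 0% = vehicle wells and 100% = reference inhibitor wells; whole bacteria with a GFP reporter of the hypoxia response; strong numbers were not always called active; many hits fall short of the cut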
# BJeLR lethal – BJeLR cell viability loss; BJeLR (HRASV12) viability, CellTiter-Glo ATP luminescence, 48 h; reference of the scale not given here; hit rate 0.17% among 300,000; inhibition, % (test concentration not listed);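 active means replicate mean above 50%; inconclusive means above 50% but judged a plate artefact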;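 further: 50 nL library stock added to about 25 µL; numbers are from one replicate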
# Mtb hypoxia rep growth – further read-out of Mtb hypoxia rep, marked with its call; growth inhibition, %; measured here: M. tuberculosis growth (absorbance);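 0% = vehicle and 100% = reference antibiotic; read after six days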
# The depositor's hits bear a star; ? = inconclusive; . = no result given. Random draw from the library; 4% or so of the library scored in one or more.
SMILES,PrP UTR inh,Sa RN4220 lethal,Autofluor counter,ugtP null kill,Mtb hypoxia rep,Mtb hypoxia rep growth,BJeLR lethal
O=C(NNC(=O)C1CCN(c2ncccn2)CC1)c1ccc(Cl)cc1,-25.5,0.4,3210,1.0,14.8,2.9,-3.1
CCOC(=O)Nc1ccc(S(=O)(=O)NC2CCCCC2)cc1,-26.3,5.9,3411,-5.9,7.6,3.2,-2.1
CCOC(=O)N1CCN(C(=O)c2cc(C)no2)CC1,-23.5,1.6,4087,9.0,5.0,5.7,-1.2
O=C(C[n+]1cccc(O)c1)NCc1ccc(Cl)cc1,-12.8,2.2,3207,8.3,3.6,-8.7,-8.2
O=S(=O)(c1cccc(-c2nnc3n2CCCCC3)c1)N1CCCC1,-17.1,10.4,4517,5.0,-19.4,-25.3,.
CCOC(=O)c1nnn(CC(=O)Nc2ccccc2OC)c1C(=O)OCC,-6.1,-4.1,3406,-6.2,-4.6,2.1,-6.1
CCCc1nn2c(=O)cc(CSCC(=O)Nc3ccc(F)cc3)nc2s1,0.7,0.2,6079,3.1,-6.3,-0.8,-4.5
CC(=O)Nc1ccc(N2C(=O)CC(Sc3nccc(C)n3)C2=O)cc1 (stereo not drawn),-9.4,5.3,3081,13.6,-2.0,-9.9,1.6
Cc1ccc(C)n1CCN1CCN(C(=O)c2ccco2)CC1,-8.7,4.0,4557,-3.7,.,.,-5.2
Cc1cccc(C)c1OCC(=O)Nc1cccc(S(=O)(=O)N2CCCC2)c1,-9.8,3.2,5702,8.8,-6.2,-4.4,2.7
CCOC(=O)c1nnsc1-c1ccc(-c2snnc2C(=O)OCC)cc1,-3.1,.,3926,.,.,.,-6.6
COc1ccc(NC(=O)C2CCN(S(=O)(=O)c3c(C)noc3C)CC2)cc1Cl,-48.4,4.5,9787,-2.1,9.1,-1.5,-5.4
CN(C(=O)CNC(=O)c1ccc(Br)o1)C1CCCCC1,-12.3,-3.3,6983,4.4,0.8,-2.1,6.3
CCc1ccc(C2CC(=O)NC(SCC(=O)OC(C)C)=C2C#N)cc1 (stereo not drawn),-24.5,5.5,5412,-0.4,9.1,7.1,-6.6
O=C1CCN(Cc2ccccc2)N1,-12.2,-1.4,3813,-1.0,-9.1,7.5,8.3
CCCCCN(C(=O)CCC(=O)OCC(=O)N(CC#N)c1ccccc1)c1c(N)n(CCCC)c(=O)[nH]c1=O,-14.5,0.3,6953,-1.3,12.3,-0.9,-0.1
CC(=O)Nc1ccc(C2=NN(CC#N)C(=O)SC2)cc1,-19.4,-0.7,3994,-2.6,5.4,20.4,6.6
COc1ccc(C(=O)CSc2nc(C)cc(C)n2)cc1C,-21.8,2.7,4241,0.8,14.8,0.5,-3.8
COc1cc(C(=O)NC2CCN(CC(=O)NC3CCCCC3)CC2)cc(OC)c1OC,-18.5,2.2,3858,4.4,4.5,11.0,-6.1
O=C(NCCN1CCN(c2ccccc2)CC1)c1cccc(Cl)c1,5.2,-2.0,3884,1.0,0.2,-14.3,-2.1
COc1ccc(CCNC(=O)CCCN2C(=O)c3ccccc3C2=O)cc1,-25.4,0.5,4631,1.2,6.0,3.4,-1.4
Cc1ccc(OCCC(=O)Nc2cc(S(=O)(=O)N3CCOCC3)ccc2N2CCCC2)cc1,-11.5,1.9,3596,7.4,9.4,13.7,.
CCN(CC)CCN(Cc1cc2cc(C)c(C)cc2[nH]c1=O)C(=S)NCc1ccco1,-6.0,-0.5,9805,-2.4,3.1,6.9,-4.1
CC(C)(C)c1ccc(-n2ncc3c2CCCC3NC(=O)C2(C(N)=O)CC2)cc1 (stereo not drawn),-11.1,2.6,5634,0.5,-10.6,10.8,10.9
CCC(=O)Nc1nnc(SCC(=O)Nc2cccc(Cl)c2)s1,-10.8,1.2,5528,2.7,4.4,1.5,-9.7
CC(C)(C)OC(=O)NCc1ccc(CNC(=O)c2[nH]cnc2C(=O)NCC(=O)OCc2ccccc2)cc1,-23.9,8.0,3361,4.2,6.8,1.2,5.3
Cc1csc(Nc2nc(N)c(C(=O)Nc3cc(Cl)ccc3F)o2)n1,-23.9,3.5,4242,3.9,14.9,4.2,6.2
O=C(Cc1ccccc1F)Nc1cc(S(=O)(=O)N2CCOCC2)ccc1N1CCOCC1,-29.3,1.2,7748,1.6,23.8,46.6,.
O=C(c1cnn(C(=O)COc2ccccc2F)c1)c1cc(F)ccc1O,-54.5,.,4341,.,.,.,8.8
COc1ccc(/C=C(\NC(=O)c2ccccc2)C(=O)OC[C@@H]2CCC[N+]3(C)CCCCC23)cc1OC (stereo partly drawn),-21.4,-2.5,4513,2.0,-9.3,-3.9,-0.5
CCOc1ccc(N/C(C)=C/C(=O)c2ccc3c(c2)OCCO3)cc1,-90.6,5.2,4125,49.9,7.6,5.0,-0.5
COc1ccccc1CNC(=O)CN(C)S(=O)(=O)c1ccc(F)cc1,-20.7,4.8,5234,1.7,-0.6,-0.3,-0.5
CC(C)(C)c1ccc(C(=O)NCc2nnc(SCC(=O)NC3CCCC3)o2)cc1,-5.5,0.5,4120,2.5,6.1,7.8,8.4
NC(=O)COC(=O)CCCc1nc2ccccc2s1,-15.5,4.8,21657*,-3.0,4.5,7.6,-14.4
O=C(/C(=N\O)n1cncn1)c1ccc(Br)cc1Br,-2.9,.,21635*,.,.,.,-5.4
CCOc1ccc(NC(=O)c2ccc(NC(=S)NC3CC3)cc2)cc1,-28.5,6.2,2582,9.9,-5.0,-3.8,-3.3
CCCCOC(=O)Nc1nc(C)c(C(=O)OCC)s1,-44.3,.,10021,.,.,.,2.4
CCC(C(=O)NC1CCCCC1)n1c(SCc2ccccc2F)nc2ccncc21 (stereo not drawn),-24.5,-3.6,5411,6.9,-5.4,2.2,8.4
COC(=O)C1=C(C(=O)OC)C2C(C)=CC(C)=CN2C(C(=O)OC)=C1C(=O)OC (stereo not drawn),-36.4,1.4,2496,10.1,6.1,-1.2,11.9
O=C(Cc1ncc(C(F)(F)F)cc1Cl)NCc1ccco1,-24.4,2.4,4322,3.2,5.0,5.9,-1.6
O=C(/C=C/Nc1cccc([N+](=O)[O-])c1)c1ccco1,-83.3,12.2,5341,3.8,16.3,8.8,11.6
CCn1cc(/C=N/NC(=O)c2ccc3c(c2)OCO3)c(C)n1,-21.3,.,2513,.,.,.,3.6
Cc1ccc(NC(=O)NC(=O)N(C2CCCCC2)S(=O)(=O)c2ccccc2)cc1,-14.4,-4.3,9214,-17.4,8.0,-0.3,-12.5
Cc1cc(C)cc(-n2c3nc4ccccc4nc3c3c(=O)n(Cc4ccco4)cnc32)c1,2.4,11.4,4528,-16.1,.,.,-1.8
COc1ccc(C(=O)C2CCCN(C3CSCCSC3)C2)c(C)c1 (stereo not drawn),-12.9,0.4,5656,7.6,-4.7,15.3,4.4
O=[N+]([O-])c1cccnc1N/N=C/c1ccccc1O,-18.2,.,4591,.,.,.,46.5
CCOC(=O)c1ccc(N/C=C2/CCCC(C)C2=O)cc1 (stereo not drawn),-84.8,-0.2,2730,-6.6,0.4,10.8,7.1
O=C(COc1ccc2ccc(=O)oc2c1)NCC(O)c1ccccc1 (stereo not drawn),-5.6,-0.7,6161,1.8,19.1,5.7,-1.9
Cn1c(=O)n(C)c2cc(/C=N/N=C3/NC(=O)C(CC(=O)O)S3)ccc21 (stereo not drawn),-17.0,.,2087,.,.,.,-14.3
O=C1c2ccccc2C(=O)N1CCSc1nnc(-c2ccco2)n1Cc1ccccc1,-15.7,6.6,11480,-13.6,14.3,1.7,-3.0
# Next part:
SMILES,PrP UTR inh,Sa RN4220 lethal,Autofluor counter,ugtP null kill,Mtb hypoxia rep,Mtb hypoxia rep growth,BJeLR lethal
CCN(CC(=O)Nc1ccc(NC(C)=O)cc1)C(=O)c1cc([N+](=O)[O-])ccc1Sc1ccc(Cl)cc1,-79.7,3.5,4237,3.3,2.2,5.1,.
COc1ccccc1C(CNc1ccc(S(=O)(=O)N2CCCC2)cc1[N+](=O)[O-])N(C)C (stereo not drawn),45.4,0.9,5285,0.4,0.9,3.4,9.9
CCCc1nc2ccccc2c(=O)n1-c1c(C)n(C)n(-c2ccccc2)c1=O,-5.9,5.3,3527,-2.0,0.6,4.0,1.1
O=C1CC(N2CCN(c3ccccc3F)CC2)C(=O)N1c1ccc2c(c1)OCCO2 (stereo not drawn),-10.4,-3.9,4377,-3.6,1.4,0.6,-6.2
COc1cc(OC)cc(C(=O)Nc2ccc(Cn3ccnc3)cc2)c1,-14.0,-2.6,3591,5.9,0.5,-1.1,1.4
CC(NC(=O)c1ccco1)c1nc(-c2ccccc2Cl)no1 (stereo not drawn),-3.8,1.2,?,0.9,3.6,10.1,2.6
O=C(CN1CCCCCC1)NN=Cc1ccc2ccccc2c1,.,3.3,.,2.1,-2.5,0.0,.
CS(=O)(=O)n1nc(OC(=O)c2cc(Br)ccc2Cl)cc1N,-2.3,2.6,2793,4.6,4.9,8.7,-5.4
C=CCSc1nc(N2CCOCC2)c2c(c1C#N)CC(C)(C)N(C)C2,-6.3,9.5,.,4.2,-8.6,-12.8,-3.3
C(=NNc1nc2ccccc2[nH]1)c1ccc2c(c1)OCCO2,.,-2.7,.,-17.5,-6.7,-0.3,.

# Some of these compounds in order of length of the SMILES, smallest number first:
SMILES,PrP UTR inh,Sa RN4220 lethal,Autofluor counter,ugtP null kill,Mtb hypoxia rep,Mtb hypoxia rep growth,BJeLR lethal
O=C(CN1CCCCCC1)NN=Cc1ccc2ccccc2c1,.,3.3,.,2.1,-2.5,0.0,.
CC(NC(=O)c1ccco1)c1nc(-c2ccccc2Cl)no1 (stereo not drawn),-3.8,1.2,?,0.9,3.6,10.1,2.6
C(=NNc1nc2ccccc2[nH]1)c1ccc2c(c1)OCCO2,.,-2.7,.,-17.5,-6.7,-0.3,.
O=C(COc1ccc2ccc(=O)oc2c1)NCC(O)c1ccccc1 (stereo not drawn),-5.6,-0.7,6161,1.8,19.1,5.7,-1.9
COc1cc(OC)cc(C(=O)Nc2ccc(Cn3ccnc3)cc2)c1,-14.0,-2.6,3591,5.9,0.5,-1.1,1.4
C=CCSc1nc(N2CCOCC2)c2c(c1C#N)CC(C)(C)N(C)C2,-6.3,9.5,.,4.2,-8.6,-12.8,-3.3
O=C1c2ccccc2C(=O)N1CCSc1nnc(-c2ccco2)n1Cc1ccccc1,-15.7,6.6,11480,-13.6,14.3,1.7,-3.0
O=C1CC(N2CCN(c3ccccc3F)CC2)C(=O)N1c1ccc2c(c1)OCCO2 (stereo not drawn),-10.4,-3.9,4377,-3.6,1.4,0.6,-6.2
Cn1c(=O)n(C)c2cc(/C=N/N=C3/NC(=O)C(CC(=O)O)S3)ccc21 (stereo not drawn),-17.0,.,2087,.,.,.,-14.3
CCN(CC(=O)Nc1ccc(NC(C)=O)cc1)C(=O)c1cc([N+](=O)[O-])ccc1Sc1ccc(Cl)cc1,-79.7,3.5,4237,3.3,2.2,5.1,.

# The list continues:
SMILES,PrP UTR inh,Sa RN4220 lethal,Autofluor counter,ugtP null kill,Mtb hypoxia rep,Mtb hypoxia rep growth,BJeLR lethal
COc1cccc(C2C(C(=O)NCc3ccccc3)=C(C)Nc3ncnn32)c1 (stereo not drawn),-29.4,3.0,10472,0.5,-2.5,0.8,-6.0
Cc1oc(-c2ccccc2F)nc1CS(=O)(=O)CC(=O)NCCCc1ccccc1,-27.1,-9.0,6497,-10.8,9.8,13.2,-13.1
COc1ccccc1N1CCN(CC(O)COc2ccc(S(=O)(=O)N3CCOCC3)cc2)CC1 (stereo not drawn),-11.0,2.0,4490,6.4,4.2,-2.5,10.5
COc1ccc(S(=O)(=O)NC2CC(C)(C)NC(C)(C)C2)c(C)c1C,.,5.9,.,2.1,-4.2,2.9,-0.1
COC(=O)c1cc2n(n1)CCN(Cc1cccc(OC)c1)C2=O,-9.8,-0.4,4023,6.2,-2.6,-2.2,-0.8
Cc1ccc(C(=O)NN=Cc2ccc3c(c2)OCO3)cc1,-57.5,1.6,4088,-5.2,22.2,13.0,.
COc1ccc(C=Nn2c(C)nc3sc(C)c(C)c3c2=O)cc1OC,.,-1.2,.,-2.8,6.6,2.5,.

# High-throughput results: PubChem BioAssay, several laboratories
